# Mtb hypoxia rep: inhibitors of hypoxia-regulated fluorescent reporter in Mycobacterium tuberculosis; AID 1159583; M. tuberculosis hypoxia-regulated fluorescent reporter, fluorescence; 300,000 tested, 0.1% active; fluorescence inhibition, % (test concentration not listed);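 active = 35 to 45% if threefold the growth effect, above 45% if 1.5-fold the growth effect; inactive = the rest, general growth blockers included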;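 note: wells of about 50 µL received 100 nL stock; 0% = vehicle wells and 100% = reference inhibitor wells; whole bacteria with a GFP reporter of the hypoxia response; strong numbers were not always called active; many hits fall short of the cut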
# Bead autofluor: counter-screen for toxin protease inhibitors: compound fluorescence; fluorescence intensity (concentration not given with the values); AID 624483; 360,000 tested, 3.1% active; compound autofluorescence counterscreen, microsphere flow cytometry; active compounds read high;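 active = at least 3 SD above the mean of all compounds, about 16000 in these data; inconclusive = too few beads counted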;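 note: 100 nL of 1 mM stock went into each well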
# BJeLR viability: kills HRASV12-expressing BJeLR cells. BJeLR (HRASV12) viability, CellTiter-Glo ATP luminescence, 48 h; reference of the scale not given here. inhibition, % (test concentration not listed). 300,000 tested, 0.17% active. AID 1554;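 active = replicate mean above 50%; inconclusive = above 50% but judged a plate artefact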;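 note: 50 nL library stock added to about 25 µL; numbers are from one replicate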
# PrP UTR inh: inhibition of PrP 5' UTR reporter expression; inhibition, % (test concentration not listed); cell-based PrP 5' UTR mRNA reporter, plate reader; 340,000 tested, 0.35% active;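 active = every replicate at 50% or more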;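 note: 0 = median of the neutral control wells; tested in H4 reporter cells; numbers are from one replicate; inactives centre near -14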
# ugtP null kill: kills S. aureus RN4220 lacking UgtP; S. aureus RN4220 ugtP deletion, OD600 growth, 16 h; some inactives read as strong as hits; growth inhibition, % (no concentration beside the values); 330,000 tested, 0.54% active; AID 1259309;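 active = z-score under -3 and OD600 up to 0.15 on both plates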;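 note: plate controls were untreated wells for no effect and antibiotic for full effect; wells of about 80 µL received 100 nL stock; the first replicate is given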
# RN4220 kill: S. aureus RN4220 growth inhibition | OD600, 16 h | inhibition, % (no concentration beside the values) | 330,000 tested, 0.33% active | AID 1259311;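 active = z-score of -3 or lower and OD600 up to 0.18 on both plates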;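 note: plate controls were untreated cells for no effect and reference antibiotic for full effect; stock transfer was 100 nL into about 80 µL; one replicate is shown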
# Mtb hypoxia rep growth: also measured in Mtb hypoxia rep; calls as there; growth inhibition, %; measured here: M. tuberculosis growth (absorbance);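 0% = vehicle and 100% = reference antibiotic; read after six days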
# Active calls of the source: *; ? = inconclusive; / = no result given. An unsorted share of the library; 4.1% or so of the library scored in one or more.
1	CCOc1ccc(C(=O)N2CCN(CCc3ccccc3)CC2)cc1OCC
2	COc1cc([C@H]2[C@@H]3CCCC[C@]3(O)CCN2CC(=O)Nc2ccc(C)cc2)ccc1O
3	C=CCn1c(C)cc(C(=O)COC(=O)[C@@H](NC(=O)c2ccccc2Cl)C(C)C)c1C
4	CCOc1ccc(C(C)=O)cc1COC(=O)c1ccccc1C(=O)N(C)Cc1ccccc1
5	CCN(CC)C(=O)c1[nH]cnc1C(=O)N[C@@H](Cc1ccccc1)C(=O)OC(C)(C)C
6	O=C(CC(=O)NN=Cc1ccc(C(=O)O)cc1)NCCc1ccccc1
7	O=c1[nH]c(=O)n(Cc2ccco2)c(O)c1C=NCc1ccco1
8	CN(Cc1ccc(F)cc1)C(=O)c1cccc(OC2CCN(C3CCCC3)CC2)c1

entry no.,1,2,3,4,5,6,7,8
RN4220 kill,0.6,3.7,2.7,9.8,/,4.8,1.3,2.9
Mtb hypoxia rep growth,4,3,5,-1,/,11,7,0
ugtP null kill,11,0,2,12,/,12,5,1
PrP UTR inh,-6,-14,10,-6,-14,/,-31,-11
BJeLR viability,-4,-1,6,/,9,/,-9,-10
Mtb hypoxia rep,12,2,12,-7,/,9,6,-1
Bead autofluor,3592,22835*,2586,?,4159,/,12488,4872

9	COc1ccc(C2c3c(c(C)c(C)oc3=O)Oc3c(C)c(C)oc(=O)c32)cc1
10	COc1cc(C(=O)NCc2cccc3ccccc23)cc(Cl)c1OC
11	COc1ccccc1N(C)S(=O)(=O)c1ccc(C(=O)NCCc2ccc(F)cc2)cc1
12	Cc1ccc(NC(=O)CSc2n[nH]c(-c3ccccn3)n2)cc1
13	COc1cc(CNS(=O)(=O)CCl)cc(OC)c1OC
14	COc1ccc(S(=O)(=O)n2ccnc2)c2cccnc12
15	O=C(Nc1ccc(N2CCOCC2)c(F)c1)c1cccs1
16	Cc1ccc(-c2cc(C(=O)NN=Cc3ccco3)[nH]n2)cc1

entry no.,9,10,11,12,13,14,15,16
RN4220 kill,2.3,-7.1,-0.5,0.3,7.0,4.8,2.3,1.9
Mtb hypoxia rep growth,15,4,8,-1,3,/,-3,9
ugtP null kill,2,-1,3,-6,5,8,1,1
PrP UTR inh,-7,-19,-22,-3,-3,-12,-57,/
BJeLR viability,/,-19,-3,8,/,22,-5,/
Mtb hypoxia rep,7,10,13,-15,4,/,-5,24
Bead autofluor,3532,7017,3991,5411,3554,3625,5503,/

# Some of these compounds in order of SMILES length, rising:
15	O=C(Nc1ccc(N2CCOCC2)c(F)c1)c1cccs1
5	CCN(CC)C(=O)c1[nH]cnc1C(=O)N[C@@H](Cc1ccccc1)C(=O)OC(C)(C)C
2	COc1cc([C@H]2[C@@H]3CCCC[C@]3(O)CCN2CC(=O)Nc2ccc(C)cc2)ccc1O

entry no.,15,5,2
RN4220 kill,2.3,/,3.7
Mtb hypoxia rep growth,-3,/,3
ugtP null kill,1,/,0
PrP UTR inh,-57,-14,-14
BJeLR viability,-5,9,-1
Mtb hypoxia rep,-5,/,2
Bead autofluor,5503,4159,22835*

# Later entries.
17	COc1cc(C(=O)N2CCCN(c3nc4cc(C)ccc4cc3C#N)CC2)cc(OC)c1OC
18	CCCn1c(C(CO)Nc2nc(C)cs2)nc2ccccc21 (stereo not given)
19	Nc1nc2ncc(C(=O)c3cc(F)ccc3O)cc2s1
20	O=C1c2cccnc2C(Nc2ccc(F)c(Cl)c2)N1Cc1cccs1 (stereo not given)
21	CC(C)OC(=O)CSc1nnc(COc2ccc([N+](=O)[O-])cc2)n1C
22	CC(C)(C)C1CCC(OCC(O)CN2CCN(c3ccccn3)CC2)CC1 (stereo not given)
23	COc1ccc(N(C(=O)c2cnccn2)C(C(=O)NC2CCCCC2)c2ccc(Cl)cc2)cc1 (stereo not given)
24	OC(CC#CCN1CCOCC1)(c1ccccc1)c1ccccc1

entry no.,17,18,19,20,21,22,23,24
RN4220 kill,3.0,3.8,4.9,6.0,4.3,-8.4,5.4,3.8
Mtb hypoxia rep growth,3,0,13,8,19,11,-8,4
ugtP null kill,-3,6,4,2,2,3,5,4
PrP UTR inh,/,0,-7,-10,-12,-11,-7,-34
BJeLR viability,7,4,10,-4,6,11,-7,6
Mtb hypoxia rep,-16,16,18,5,7,18,-9,13
Bead autofluor,/,3872,6133,2016,3560,4519,2488,4381

25	O=C(O)Cn1c(=O)n(Cc2ccccc2)c2ccccc21
26	COc1ccc(C(=O)NCC(=O)OCc2ccc(F)cc2)cc1
27	CCn1ccnc1CN(C)Cc1nc(-c2ccccc2)no1
28	CCOc1ccc(S(=O)(=O)N2CCC(C(=O)NCC3CCCO3)CC2)cc1C (stereo not given)
29	CCOC(=O)CCC(=O)Nc1cc(S(=O)(=O)N2CCOCC2)ccc1N1CCCCC1
30	FC(F)(F)Oc1ccc(NC(=S)NCCCN2CCOCC2)cc1
31	CCN(CCO)Cc1csc2ccc(C(C)(C)C)cc12
32	COc1ccc(C)cc1S(=O)(=O)N(C)CC(=O)NC1CCCC1

entry no.,25,26,27,28,29,30,31,32
RN4220 kill,0.8,4.1,6.5,5.2,3.3,0.1,6.4,4.3
Mtb hypoxia rep growth,3,-1,2,16,-5,9,6,2
ugtP null kill,4,5,2,3,1,6,6,1
PrP UTR inh,-15,-36,47,-3,10,-35,-14,-8
BJeLR viability,0,-8,0,5,/,-12,8,13
Mtb hypoxia rep,-6,2,7,1,-11,-6,14,4
Bead autofluor,2994,2137,3770,6005,5229,4078,2301,2278

# Whole records, quoted from the list. Order of values: RN4220 kill, Mtb hypoxia rep growth, ugtP null kill, PrP UTR inh, BJeLR viability, Mtb hypoxia rep, Bead autofluor
# `CCOc1ccc(S(=O)(=O)N2CCC(C(=O)NCC3CCCO3)CC2)cc1C` (stereo not given) across the screens: 5.2, 16, 3, -3, 5, 1, 6005
# `COc1ccc(C(=O)NCC(=O)OCc2ccc(F)cc2)cc1` across the screens: 4.1, -1, 5, -36, -8, 2, 2137
# `FC(F)(F)Oc1ccc(NC(=S)NCCCN2CCOCC2)cc1` across the screens: 0.1, 9, 6, -35, -12, -6, 4078
# `CCn1ccnc1CN(C)Cc1nc(-c2ccccc2)no1` across the screens: 6.5, 2, 2, 47, 0, 7, 3770
# `O=C(O)Cn1c(=O)n(Cc2ccccc2)c2ccccc21` across the screens: 0.8, 3, 4, -15, 0, -6, 2994

# New compounds follow:
33	COc1ccc(C(=O)n2nc(C)c(Br)c2C)cc1OC
34	Cc1ccccc1CSCC(=O)Nc1ccccc1Br
35	CCCCc1cc(=O)oc2cc(C)cc(OCC(=O)NCc3ccccn3)c12
36	CCCc1ccc(OC(=O)c2cccs2)cc1
37	Cc1ccc(NC(=O)CSc2nc(=O)n(CCCN3CCOCC3)c3c2CCCC3)cc1
38	O=C(COC(=O)c1ccc(Br)o1)NCc1cccs1
39	O=C(O)Cn1cc2c(n1)CCCCC2
40	COc1cc(N)ccc1C(=O)O

entry no.,33,34,35,36,37,38,39,40
RN4220 kill,0.7,7.0,0.0,0.3,4.3,2.4,5.2,1.9
Mtb hypoxia rep growth,7,7,3,-4,2,14,10,6
ugtP null kill,17,4,4,12,11,8,2,2
PrP UTR inh,11,-12,-2,-19,-13,-20,-6,-16
BJeLR viability,3,-11,7,2,12,-6,-1,-4
Mtb hypoxia rep,2,18,10,1,5,18,14,17
Bead autofluor,4849,4145,5547,10693,4447,8586,2368,/

41	COc1ccc(NC(=O)Nc2nnc(CC(=O)Nc3ccccc3)s2)cc1
42	C=CCOc1ccc2nc(NC(=O)OC)[nH]c2c1
43	O=S(Cc1ccc(Br)cc1)Cc1nnc(SCc2c(Cl)cccc2Cl)n1-c1ccccc1 (stereo not given)
44	O=C(NCCN1CCC(Cc2ccccc2)CC1)C1CCN(S(=O)(=O)N2CCC3(CC2)OCCO3)CC1
45	CCCCC(=O)NC(NC(=O)CCCC)c1ccc(OCC(C)C)c(OC)c1
46	Cc1ccc(N/C=C(\C#N)S(=O)(=O)c2ccccc2)cc1
47	Fc1ccc(Nc2ncnc3ccccc23)cc1
48	O=C(NN=Cc1c[nH]c2ccccc12)c1cc(Cl)ccc1O

entry no.,41,42,43,44,45,46,47,48
RN4220 kill,1.5,4.4,7.0,1.1,4.8,1.7,2.5,7.9
Mtb hypoxia rep growth,3,5,1,5,/,13,12,-5
ugtP null kill,-6,-2,-20,2,13,-3,4,9
PrP UTR inh,-9,-2,-16,-14,-11,-12,9,/
BJeLR viability,-10,44,10,0,-1,-4,3,/
Mtb hypoxia rep,-7,6,-6,13,/,13,5,-7
Bead autofluor,3873,23127*,11794,8227,1929,4323,3474,/

49	CC(=NNC(=O)c1cc(C)[nH]n1)c1ccc(-c2ccccc2)cc1
50	O=C(c1ccccc1)N1N=C(c2ccccc2)CC1c1ccc2nccnc2c1 (stereo not given)
51	CCOC(=O)CNC(=O)CSc1nnc(-c2cccc(C)c2)n1-c1ccc(OC)cc1
52	CCOC(=O)Cc1cc(=O)[nH]n(-c2ccccc2)c1=O
53	CN=C1SC(CC(=O)Nc2sc(C)c(C)c2C(=O)OC)C(=O)N1C (stereo not given)
54	CC(=O)NC12CC3CC(C1)CC(C(=O)Nc1c(C)n(C)n(-c4ccccc4)c1=O)(C3)C2
55	C[C@@]12C(=O)N(c3ccc(F)cc3)C(=O)N1[C@@H]1c3ccccc3OC[C@@H]1[C@H]2c1ccccc1
56	O=S1(=O)CCOC2Cc3ccccc3C2N1Cc1cccc(F)c1 (stereo not given)

entry no.,49,50,51,52,53,54,55,56
RN4220 kill,4.3,12,-5.4,3.3,6.0,5.0,/,10
Mtb hypoxia rep growth,11,1,/,0,-1,1,/,8
ugtP null kill,3,16,11,4,15,13,/,6
PrP UTR inh,/,-28,-25,7,-15,-30,-5,/
BJeLR viability,/,3,6,/,1,14,8,/
Mtb hypoxia rep,5,15,/,0,7,6,/,3
Bead autofluor,/,11224,4123,2982,12975,5732,2992,/

57	Cc1ccccc1OCC(=O)NNC(=O)Nc1ccc(Cl)cc1
58	CC(=O)Nc1ccc(NC(=O)CCNC(=O)c2ccccc2Cl)cc1
59	Clc1ccc(CO/N=C/c2cccs2)cc1
60	COC(C)(C)[C@]12CC(O)(c3ccccc3)ON1C1CCCCC1N2O (stereo not given in full)
61	CC1=C(C(=O)Nc2ccc(C)cc2C)C(c2cccc([N+](=O)[O-])c2)n2nc(C(=O)OC(C)C)nc2N1 (stereo not given)
62	CS(=O)(=O)N1N=C(c2ccc(Br)cc2)CC1c1ccc2c(c1)OCO2 (stereo not given)

entry no.,57,58,59,60,61,62
RN4220 kill,-2.4,6.2,/,9.9,1.6,6.2
Mtb hypoxia rep growth,/,7,/,2,6,3
ugtP null kill,5,10,/,4,12,-11
PrP UTR inh,-13,-1,-29,/,0,-89
BJeLR viability,13,0,-6,/,5,-3
Mtb hypoxia rep,/,7,/,8,10,10
Bead autofluor,4840,3112,3938,/,2575,25156*

# A second format for 2 compounds above.
# Under each structure: RN4220 kill	Mtb hypoxia rep growth	ugtP null kill	PrP UTR inh	BJeLR viability	Mtb hypoxia rep	Bead autofluor
55	C[C@@]12C(=O)N(c3ccc(F)cc3)C(=O)N1[C@@H]1c3ccccc3OC[C@@H]1[C@H]2c1ccccc1
 : /	/	/	-5	8	/	2992
56	O=S1(=O)CCOC2Cc3ccccc3C2N1Cc1cccc(F)c1 (stereo not given)
 : 10	8	6	/	/	3	/

# Bioassay records from PubChem BioAssay.
